NPYLR7 ag = mosquito NPYLR7 agonism; hit rate 0.15% among 270,000; HEK293T NPYLR7/Galpha15, GCaMP6s calcium fluorescence; AID 1259423; activation, % at 10 µM; in the data active = activation above about 40%;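 also: 0% = vehicle and 100% = reference agonist at the receptor; some compounds past the cut are filed as inactive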
NPYLR7 ag max-min = also measured in NPYLR7 ag; calls as there; activation, %; measured here: Max-Min RFU normalised activation; some inactives read as strong as hits;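 span of the calcium signal over five minutes; 0% = vehicle and 100% = native peptide agonist; compound fluorescence can raise it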
* hit, by the source's call; & = joins results of further samples.

A first look:
[1] Clc1ccc(CCC(Cn2ccnc2)Sc2c(Cl)cccc2Cl)cc1 (stereo not drawn)
[2] O=C(Nc1nnc(-c2ccccc2Cl)s1)c1ccc(-c2ccccc2)cc1
entry no.,1,2
NPYLR7 ag,-5.8,-4.5
NPYLR7 ag max-min,-10.2,-9.3

All compounds of this part, previewed entries included:
[1] Clc1ccc(CCC(Cn2ccnc2)Sc2c(Cl)cccc2Cl)cc1 (stereo not drawn)
[2] O=C(Nc1nnc(-c2ccccc2Cl)s1)c1ccc(-c2ccccc2)cc1
[3] CCn1c(C)cc(O)c(C(c2ccccn2)N2CCN(c3ccccn3)CC2)c1=O (stereo not drawn)
[4] COc1ccc(C(C)(C)C)cc1S(=O)(=O)N1CCNC(C(=O)O)C1 (stereo not drawn)
[5] COc1cc(NC(=O)CN2CCC(n3ccnc3)C2)ccc1Cl (stereo not drawn)
[6] CC1CC1C(=O)NCCC(=O)Nc1ccc(N(C)C)cc1 (stereo not drawn)
[7] CN(Cc1cnc(-c2ccccn2)nc1)Cc1cnn(-c2ccccc2)c1
[8] CCOC(=O)C1CCN(CC(=O)N2N=C(c3ccc(OC)cc3)CC2c2ccc(Cl)cc2)CC1 (stereo not drawn)
entry no.,1,2,3,4,5,6,7,8
NPYLR7 ag,-5.8,-4.5,12.4,5.1,9.3,-1.4,-0.3,-4.7
NPYLR7 ag max-min,-10.2,-9.3,6.5,3.0,5.8,5.7,-6.8,4.6

[9] CC(=O)Nc1ccc(Cn2c(C)c(C(=O)N(C)Cc3ccc(F)cc3)sc2=O)cc1
[10] CC(C)c1cc(=O)[nH]c(-n2nc(-c3cccs3)cc2NC(=O)c2ccc(F)cc2F)n1
[11] O=C(Nc1nnc(C(F)(F)F)s1)N1CCOCC1c1ccccc1 (stereo not drawn)
[12] O=C(CSc1nc2ccccc2[nH]1)Nc1ccc(OC(F)(F)F)cc1
[13] CN(Cc1nc2ccccc2c(=O)[nH]1)Cc1cc(F)cc2c1OCOC2
[14] CN1CCN(Cc2ccc(C#CC(C)(C)O)cc2)CC1C(=O)O (stereo not drawn)
[15] O=C(c1ccc2oc(Cc3ccccc3)nc2c1)N1CCOc2ccccc2C1
[16] COC(=O)c1ccc(C(=O)Nc2nnc(C3=COCCO3)o2)cc1
entry no.,9,10,11,12,13,14,15,16
NPYLR7 ag,12.6,-0.1,-1.6,-5.4,-1.0,-1.7,0.8,-10.6
NPYLR7 ag max-min,9.1,-3.5,-3.3,-15.7,-1.5,-6.2,-0.6,-12.4

Complete entries from above. Order of values: NPYLR7 ag	NPYLR7 ag max-min
Listed for O=C(Nc1nnc(C(F)(F)F)s1)N1CCOCC1c1ccccc1 (stereo not drawn) = -1.6	-3.3
Listed for O=C(c1ccc2oc(Cc3ccccc3)nc2c1)N1CCOc2ccccc2C1 = 0.8	-0.6
Listed for CC(=O)Nc1ccc(Cn2c(C)c(C(=O)N(C)Cc3ccc(F)cc3)sc2=O)cc1 = 12.6	9.1
Listed for COC(=O)c1ccc(C(=O)Nc2nnc(C3=COCCO3)o2)cc1 = -10.6	-12.4

Further compounds follow.
[17] Cc1ccccc1C(=O)Nc1ccc(Cl)c(S(=O)(=O)N(C)C)c1
[18] COC(=O)[C@@H](C)NC(=O)[C@H]1CN(C(=O)Nc2ccccc2)CCN1C(=O)NC(C)C
[19] Cc1cccc2c1O[C@H]1[C@H](CO)CN(S(C)(=O)=O)[C@@H]21
[20] Cc1ccc(C(=O)CSc2nnc(C3CC3)n2-c2ccc(Cl)c(Cl)c2)cc1
[21] CCCCc1ccc(NC(=O)CNc2ccccc2C(C)=O)cc1
[22] CC(NCc1nc(Cc2ccccc2F)no1)c1cn2ccsc2n1 (stereo not drawn)
[23] O=C(CSc1nc2[nH]ncc2c(=O)[nH]1)Nc1nccs1
[24] CCOC(=O)C1CCN(C(=O)c2cc(-c3ccc(F)cc3)nc3cc(-c4ccc(Cl)cc4)nn23)CC1
entry no.,17,18,19,20,21,22,23,24
NPYLR7 ag,-23.1,-9.3,-4.2,-5.6,-1.2,7.1,-2.4,17.7
NPYLR7 ag max-min,-23.4,-14.2,5.9,-13.2,-0.9,2.7,-0.5,9.5

[25] CCOCCCN(CC(=O)N(CCc1ccccc1)Cc1ccc(C)o1)C(=O)C1CCC1
[26] O=C(NCc1ccc(S(=O)(=O)N2CCCCC2)cc1)c1ccco1
[27] O=C(Nc1ccc(Nc2ccc(-n3cccn3)nn2)cc1)c1ccccc1
[28] COc1ccc(NC(=O)Nc2ccc3nc([C@@H]4O[C@H](CO)[C@@H](O)[C@H]4O)[nH]c3c2)cc1OC1CCCC1
[29] COc1ccc(N2C(=O)c3ccccc3NC23CCN(C(=O)c2ccc(Cl)nc2)CC3)cc1
[30] COc1ccc(OC)c2sc(N(Cc3ccccn3)C(=O)c3cc(C)n(C)n3)nc12
[31] COc1cc(C)c(S(=O)(=O)Nc2ccccc2Cl)cc1C
[32] O=C1NC2(CCN(Cc3ccccc3Cl)CC2)Nc2cccc(F)c21
entry no.,25,26,27,28,29,30,31,32
NPYLR7 ag,1.2,-1.1,-3.4,-1.1,1.0,-5.1,0.5,-0.7
NPYLR7 ag max-min,3.7,11.6,-7.6,19.1,15.4,-3.5,5.3,2.1

[33] CCN(CC1CCCN(CCc2cccc(OC)c2)C1)C(=O)c1ccc(Cl)cc1F (stereo not drawn)
[34] Cn1cnc2c1c(=O)n(CCCN1C(=O)C3(CC(=O)N(Cc4ccccc4)C3=O)c3cc(Cl)ccc31)c(=O)n2C (stereo not drawn)
[35] COCC(C)NC(=O)CCc1nnc(CCC2CCCCC2)o1 (stereo not drawn)
[36] COCCN(Cc1cccn1Cc1cccc(C(F)(F)F)c1)C(=O)c1ccc(Cl)cc1Cl
[37] Cc1cccc(-c2nc3c(Nc4cccc(O)c4)nccc3[nH]2)c1
[38] CC(=O)Nc1ccc(S(=O)(=O)NCC(c2ccsc2)N2CCOCC2)cc1 (stereo not drawn)
[39] CC(C)NC(=O)N(CCN1C(=O)CSC1c1ccccc1F)C(C)C (stereo not drawn)
[40] COc1ccc(CCN(Cc2ccc(C)o2)C(=O)CN(CC(C)C)C(=O)c2ccccc2F)cc1OC
entry no.,33,34,35,36,37,38,39,40
NPYLR7 ag,5.3&1.9,13.4,-3.1,2.2,-3.3,4.5,-5.6,-17.5
NPYLR7 ag max-min,-6.0&0.7,4.9,-3.0,17.9,-7.2,-8.3,-4.9,-19.0

[41] Cc1cc(F)ccc1Oc1cc(N2CCN(C(=O)C(C)(C)CCl)CC2)ncn1
[42] O=S(=O)(c1cccc(C(F)(F)F)c1)N1CCC(c2cn(Cc3ccc(C(F)(F)F)cc3)c3ccccc23)CC1
[43] COc1ccc(NC(=O)CN2C(=O)NC(C)(c3ccco3)C2=O)cc1OC (stereo not drawn)
[44] O=C(CSc1nc2ccccc2c(=O)n1-c1ccccc1Cl)NC1CCS(=O)(=O)C1 (stereo not drawn)
[45] COC(=O)[C@@H](NC(=O)c1nc2ccccn2c1F)C(C)(C)C
[46] CCc1nnc(N=Cc2nc(-c3cccc4ccccc34)oc2O)s1
[47] c1ccc2c(c1)CCOC2CNCC1COc2ccccc2O1 (stereo not drawn)
[48] CCc1nc(N2CCN(S(=O)(=O)c3ccc(Cl)cc3)CC2)c2ccc(Cl)cc2n1
entry no.,41,42,43,44,45,46,47,48
NPYLR7 ag,-10.4,13.9,15.8,4.8,13.0,1.8,7.4,2.9
NPYLR7 ag max-min,-7.6,6.4,6.9,2.5,11.4,-3.7,3.0,9.3

[49] COc1cc(C(C)=O)ccc1OCCCN1CCC(c2noc3cc(F)ccc23)CC1
[50] Cc1ccc(C(=O)Nc2cccc(O)c2)cc1S(=O)(=O)N1CCC(C)CC1
[51] CCCCn1c(=O)c2c(nc3n2CCCN3c2ccc(OCC)cc2)n(C)c1=O
[52] COc1ncccc1-c1nccc(N2CCC(O)CC2)n1
[53] CC(=O)O[C@@H]1CC2C(C)(C)C(=O)C=C[C@]2(C)C2CC[C@@]3(C)[C@H](c4ccoc4)OC(=O)[C@H]4O[C@]43[C@@]21C (stereo partly drawn)
[54] CCN(Cc1c(F)ccc(C)c1F)CC1CCOCC1
[55] CNC(=O)c1cc(S(=O)(=O)N2CC(c3ccccn3)C2)cs1
[56] Cc1cccc(C(=O)N2CCN(c3cc(C)c(C#N)c4nc5ccccc5n34)CC2)c1
entry no.,49,50,51,52,53,54,55,56
NPYLR7 ag,-12.7,-5.1,1.9,7.2,-20.3,5.5,5.8,-1.8
NPYLR7 ag max-min,-22.3,-9.3,5.4,2.5,-20.3,2.5,6.0,-9.2

[57] Cc1ccc(Br)cc1S(=O)(=O)N(C)CCC#N
[58] CCOC(=O)C(=CNc1ccccn1)C(=O)OCC
[59] O=C(c1ccc(F)c(F)c1)N1CCN(Cc2cccc(-c3noc(-c4ccco4)n3)c2)CC1
[60] Cc1c(C)n2c3c(=O)n(CC(=O)OCc4ccccc4)c(=O)n(C)c3nc2n1C1CCCCC1
[61] COCCCNC(=O)C(NC(=O)c1ccccc1C)C1CCN(C(=O)c2ccc(F)cc2)CC1 (stereo not drawn)
[62] CCc1nc2c(OCc3ccccc3)cccn2c1N(C)C(C)=O
[63] O=C(c1cc2n(n1)CCN(Cc1c(F)cccc1Cl)C2=O)N1CCN(C/C=C/c2ccccc2)CC1
[64] CC(C)Sc1ccc(C(=O)Nc2ncnc3sccc23)cc1
entry no.,57,58,59,60,61,62,63,64
NPYLR7 ag,5.3,-9.8,3.2,6.9,18.7,0.1,-8.5,-6.2
NPYLR7 ag max-min,3.9,-13.4,0.1,4.5,24.1,3.2,-9.1,-15.9

Fetched one by one from the entries so far:
[58] CCOC(=O)C(=CNc1ccccn1)C(=O)OCC
[59] O=C(c1ccc(F)c(F)c1)N1CCN(Cc2cccc(-c3noc(-c4ccco4)n3)c2)CC1
entry no.,58,59
NPYLR7 ag,-9.8,3.2
NPYLR7 ag max-min,-13.4,0.1

The results go on.
[65] CCCCCNC(=O)CC(c1ccccc1OC)c1c[nH]c2ccccc12 (stereo not drawn)
[66] CC(=O)Nc1ccc(NC(=O)C2Cc3ccccc3O2)cc1C (stereo not drawn)
[67] COc1ccc(CCN(Cc2sccc2C)C(=O)CN(CCN2CCCC2)C(=O)Nc2ccc(Cl)cc2Cl)cc1OC
[68] COc1cccc(C(CN2CCN(C(=O)Nc3ccccc3OC)CC2)OCc2cccc(Cl)c2)c1 (stereo not drawn)
[69] [Li+]
[70] O=c1[nH]c2ccccc2c(=O)n1CC(c1ccco1)N1CCCCC1 (stereo not drawn)
[71] COC(=O)C1=C(C)NC(C)=C(C(=O)OC)C1C(=O)OCc1csc(C)n1
[72] COC(=O)c1ccc(Cn2c(C)c(C(=O)NCc3ccc(OC)cc3)sc2=O)o1
entry no.,65,66,67,68,69,70,71,72
NPYLR7 ag,-3.5,2.0,-2.3,-2.2,-4.6&-0.6,7.1,9.3,4.5
NPYLR7 ag max-min,5.0,0.8,1.4,2.7,-7.3&-24.3,6.9,15.2,2.8

[73] CCc1nnc(-c2cc3ccccc3n2CC(=O)Nc2ccccc2F)o1
[74] CC1(C(=O)N2CCN(C(=O)c3ccco3)CC2)CCN1Cc1ccccc1OC(F)F (stereo not drawn)
[75] O=C(Cc1cccnc1)N1CC[C@@H](N2CCN(c3ccccc3F)CC2)[C@H](O)C1
[76] CN=c1scc(-c2ccc(F)cc2)n1N=Cc1cccc(Br)c1
[77] CC1C(=O)N(c2ccc(F)cc2F)CCN1C(=O)COc1ccc(Cl)cc1 (stereo not drawn)
[78] O=C(Cn1nnnc1CN1CCc2ccccc2C1)NC(c1ccccn1)C(F)(F)F (stereo not drawn)
[79] Cc1cc(C)c(C(=O)N2CCCC(c3nc4c(C)cccc4[nH]3)C2)c(=O)[nH]1 (stereo not drawn)
[80] CSc1ncc(Cl)c(C(=O)C(C#N)c2nc3ccc(Br)cc3c(=O)[nH]2)n1 (stereo not drawn)
entry no.,73,74,75,76,77,78,79,80
NPYLR7 ag,9.9,11.8,0.0,6.0,-0.8,7.9&2.0,0.1,4.0
NPYLR7 ag max-min,5.8,3.1,-0.3,3.5,14.0,3.9&-1.3,-5.0,37.8

[81] O=C1OC(Nc2ccc(Br)cn2)c2ccccc21 (stereo not drawn)
[82] O=C1CCC(NCC2CCN(C3CCCC3)CC2)CCN1CC1CC1 (stereo not drawn)
[83] COC(=O)c1ccc2c(c1)nc(N1CCC(O)(c3ccc(C)cn3)CC1)n2C
[84] O=C(c1cc(Cl)cc(Cl)c1)N1CCC(Cc2ccc(C(F)(F)F)cc2)CC1
[85] O=C(NC(c1ccccc1)c1cnccn1)C1CCN(CCc2ccccc2)CC1 (stereo not drawn)
[86] CCOC(=O)c1c(C)nn(-c2ccc(C(=O)Nc3ccccc3C)cc2)c1C
[87] O=C(Cn1nc(-c2cccs2)ccc1=O)N1CCCc2ccccc21
[88] c1ccc(C(c2ccccc2)c2n[nH]c3c2CN(CC2CCCO2)CC3)cc1 (stereo not drawn)
entry no.,81,82,83,84,85,86,87,88
NPYLR7 ag,20.8,6.1,1.2,8.2,2.5,1.2,8.2,10.3
NPYLR7 ag max-min,11.3,3.9,2.4,0.0,-1.5,-0.1,3.0,5.5

Source: PubChem

An excerpt; the hit share may differ from the screen's.
